# High-throughput results from PubChem.
# Vaccinia Venus = inhibitors of vaccinia virus (Venus reporter); Vaccinia virus Venus reporter expression, fluorescence; Potency, µM (top dose mostly 36.5 µM), for the others: top-dose activity change, negative = inhibition, hits mostly inhibitors; 0.46% of 330,000 active; AID 720580; active means well fitted inhibition curve with a large enough effect; inconclusive means small, poorly fitted or top-dose-only effect; inactive means no such curve, though single readings can be large or run the other way; tested in A549 cells; also: nearly all actives have a fitted effect of over 30% in size; inactives centre near -10
# VACV mCherry inh = inhibitors of vaccinia virus infection (mCherry reporter signal); Vaccinia virus mCherry reporter infection, fluorescence; about a quarter of the inactives have no number; Potency, µM (titrated, usually from 36.5 µM), without a hit: at the top dose activity change, negative = inhibition, hits mostly inhibitors; 0.63% of 310,000 active; AID 720579; active = well fitted inhibition curve with a large enough effect; inconclusive = small, poorly fitted or top-dose-only effect; inactive = no such curve, though single readings can be large or run the other way; tested in A549 cells; also: nearly all actives have a fitted effect of over 35% in size; inactives centre near -10
# Active calls of the source: *; i = inactive; ? = inconclusive; · = not tested or not shown; [ ] = dose if it differs, or a comment. % is scaled to controls: 0 for no effect and ±100 for the full control effect; potency is read from the fitted curve at half-maximal effect.
SMILES,Vaccinia Venus,VACV mCherry inh
CC(=O)Oc1ccc(-c2nc(-c3cccnc3)no2)cc1,-13%,-15%[1.46 µM]
COC(=O)c1sccc1NC(=O)COc1ccc(F)cc1Cl,-10%,-9%
O=C(CSc1nc2ccccc2o1)Nc1nc2ccc(Br)cc2s1,-14%,-21%
CC(=NNS(=O)(=O)c1ccc(C)cc1)c1ccccc1,-11%,-28%
NC(=O)CSc1cn(Cc2ccc(F)cc2)c2ccccc12,-3%,7%
COc1ccc(CN2CCNC(=O)C2CC(=O)N(Cc2nccn2C)C(C)C)c(OC)c1 (stereo unspecified),-13%,-5%
O=C(Cn1c(=O)n(Cc2ccc(F)cc2)c(=O)c2sc3ccccc3c21)Nc1ccc(F)cc1F,-23%,-21%
Cc1ccc(S(=O)(=O)N(C)c2ccc(C(=O)NCc3ccccn3)cc2)cc1,-21%,-2%
O=Cc1cc2c(cc1[B-](F)(F)F)OCO2,-9%,i
CN(C)c1cccc(NC(=O)c2ccc(-c3ccc(F)c(F)c3)c3ccoc23)c1,-10%,i
O=C([C@@H]1CC=C[C@@H]2CCN(C3CC3)C(=O)[C@@H]21)N1CCOCC1,-8%,-13%
CCOC(=O)c1ccoc1CSCC(=O)N1CCN(S(=O)(=O)c2ccc(C)cc2)CC1,-22%,-27%
Cc1cccc(NC(=O)CCCc2ccccc2)c1C,3%,i
COc1ccc2nc(NC(=O)CS(=O)(=O)c3ccc(C)cc3)sc2c1,-5%,?
CCC(=O)c1cc(F)c(N2CCN(C(=O)c3ccco3)CC2)cc1C,-11%,i
CCc1nc2ccccc2nc1N1CCN(S(=O)(=O)c2ccccc2)CC1,15%,-1%
CCOC(=O)c1c(/N=C/C2C(=O)NC(=O)NC2=O)sc2c1CCC2,-10%,-14%
CC1CN(C(=O)C2(C)CC2(Cl)Cl)CC(C)O1 (stereo unspecified),0%,-14%
CN(C)CCN(C)C1CN(C2CCCC2)S(=O)(=O)C1 (stereo unspecified),6%,2%
Cc1cccc(NC(=O)CSc2nc3c([nH]c4ccccc43)c(=O)n2-c2ccc(F)cc2)c1C,?,-15%
Cc1ccc(C(=O)Nc2ccn(Cc3ccc(F)cc3)n2)o1,-8%,i
COc1ccc(CCNC(=O)c2cc(S(=O)(=O)N3CCCCC3)ccc2Cl)cc1,-18%,-10%
CC(=O)Nc1ccc(NC(=O)C2CCCN2C(=O)Nc2ccccc2[N+](=O)[O-])cc1 (stereo unspecified),2%,-3%
COc1ccc(C(=O)NCc2nnc(SCC(=O)N3CCc4ccccc43)o2)cc1OC,-10%,i
CC(C)CC(N)c1csc(Nc2ncccn2)n1 (stereo unspecified),?,7.9µM*
COc1cc(NS(=O)(=O)c2ccc(N/C=C\C(=O)c3ccc(F)cc3)cc2)nc(OC)n1,-16%,-20%
CNCc1ccccc1Sc1cc(O)ccc1O,-6%,?
COCCCN(C(=O)c1ccc(-c2ccc(C(C)=O)cc2)o1)c1c(N)n(CC(C)C)c(=O)[nH]c1=O,2%,-11%
COc1ccc2nc(SCC(=O)NCC3CCCO3)c(C#N)cc2c1 (stereo unspecified),-10%,8%
COc1ccc(S(=O)(=O)N2CCC(C(=O)NCc3ccccn3)CC2)cc1OC,-9%,?
Cn1c(=O)[nH]c(=O)c2c1nc(Br)n2CC(O)COCc1ccccc1 (stereo unspecified),-23%,·
COc1ccc(N(C)S(=O)(=O)c2cccc(C(=O)Nc3cccc(C(=O)NC4CC4)c3)c2)cc1,-20%,35%[activator]
CCC(C)Nc1nc(Cl)nc(NCCOc2ccccc2)n1 (stereo unspecified),-5%,i
Cn1c(O)c(/C=N/N2CCCCC2)c(=O)[nH]c1=O,-7%,i
O=C(NCc1ccco1)C1CCCN1C(=O)Nc1ccccc1[N+](=O)[O-] (stereo unspecified),-10%,-9%
COc1cccc(C(=O)Nc2nc(-c3ccncc3)cs2)c1,-14%,i
COCCN(Cc1cc2cc(C)cc(C)c2nc1Cl)C(=O)Nc1ccccc1,-20%,?
CC1=C(C(=O)N2CCOCC2)C(c2c(C)cc(C)cc2C)NC(=S)N1 (stereo unspecified),-13%,i
O=S1(=O)N=C(Nc2cccc(C(F)(F)F)c2)c2ccccc21,-18%,-27%
COc1ccccc1-c1ocnc1C(=O)N1CCN(C(=O)C(c2ccccc2)c2ccccc2)CC1,-8%,i
CC1C(=O)N(Cc2cn(CC3CCCCC3)nn2)CCS(=O)(=O)N1Cc1ccc(-c2ccc(Cl)c(Cl)c2)cc1 (stereo unspecified),-21%,-5%
CC(=O)Nc1ccc2nc(NC(=O)COc3ccc(C)cc3)sc2c1,-6%,-4%
Cc1cc2c(cc1C)-n1nnnc1C(N(C)CCc1ccccc1)C(=O)N2 (stereo unspecified),-22%,?
CCNC(=S)N1CCN(CC(=O)Nc2ccc(OC)cc2)CC1,-9%,-7%
COc1ccc(Cn2c(=O)[nH]c3cc(C(=O)N4CCN(c5ccccn5)CC4)ccc3c2=O)cc1,16%,i
Cc1cc(C)n(-c2nc3c(c(=O)n(C)c(=O)n3C)n2C)n1,-20%,·
CCCC(C)c1nnc(NC(=O)CCS(=O)(=O)Cc2ccccc2)s1 (stereo unspecified),-21%,?
CC(C)c1ccc(NS(=O)(=O)c2ccc3[nH]cc(C(=O)NCCc4ccccc4)c(=O)c3c2)cc1,-6%,i
COc1cccc(OC)c1C(=O)NC(=S)Nc1ccc(N2CCOCC2)c(Cl)c1,1%,8%
Cc1ccc2c(c1)c1c(c(=O)n(-c3ccccc3C)c(=O)n1CC(=O)NCC1CCCO1)n2C (stereo unspecified),-3%,11%
O=Cc1c[nH]c2ccc(S(=O)(=O)N3CCCCC3)cc12,-13%,-26%
CCCCOC(=O)Nc1nnc(/C=C/c2ccc(OC)cc2)s1,-28%,-5%
COc1ccc(C2=NOC(Cn3nc(C(=O)NCc4cccc(C(F)(F)F)c4)cc3-c3ccccc3)C2)cc1 (stereo unspecified),?,i
Cc1oc(-c2ccccc2F)nc1CS(=O)(=O)CC(=O)N1CCc2ccccc21,-17%,i
O=C(NCCc1ccccc1Cl)C1CCN(S(=O)(=O)c2cccs2)CC1,-10%,-11%
Cn1c(=NC(=O)C2CC2)sc2cc(F)cc(F)c21,-11%,-18%
C[C@@H]1CN([C@H](C)CO)S(=O)(=O)c2ccc(-c3ccc(C(=O)N(C)C)cc3)cc2O[C@H]1CN(C)C(=O)Cc1ccccn1,-13%,i
CC1CCC(C(C)C)C2=C1C(C#N)(C#N)C(C#N)(C#N)C(c1ccccc1)N2 (stereo unspecified),-27%,·
Nc1c(O)ccc2c1C(=O)c1ccccc1C2=O,47%[activator],258%[activator]
CC(=O)c1cccc(NC(=O)Nc2ccc(C)cc2)c1,-23%,·
# (more compounds)
SMILES,Vaccinia Venus,VACV mCherry inh
Nc1ccccc1-c1ccc(Cl)cc1,?,-14%
COc1ccc(S(=O)(=O)N(C)CC(=O)N2CCC(C)CC2)cc1Cl,-7%,i
O=C(/C=C/c1ccccc1)N/C(=C\c1ccco1)C(=O)NCCO,-5%,?
CC(=O)NNc1cccc(Cl)n1,-8%,-17%
CCOc1ccc(CN(C(=O)c2cccs2)C2CCS(=O)(=O)C2)cc1 (stereo unspecified),-14%,i
Cc1ccc(OC(=O)c2cccc(S(=O)(=O)N(C)C)c2)c(-n2nc3ccccc3n2)c1,-11%,·
COc1ccc(C2=Cc3ccccc3C(CC(=O)C3CC3)N2c2ccc(C#CCCO)cc2)cc1 (stereo unspecified),-10%,-12%
CC(=O)Nc1ccc(NC(=O)CSc2ncc(C(=O)Nc3ccccc3)c(=O)n2C)cc1,-11%,-25%
O=S(=O)(c1ccccc1)c1nnn2c1nc(NCc1ccccc1)c1sccc12,?,-29%
CSc1ccccc1NC(=O)C(C)N(C)CC(=O)N1CCN(Cc2ccccc2)CC1 (stereo unspecified),1%,-3%
CC(C)C[C@@H](CN(C)N=O)N(C[C@H](Cc1ccccc1)N(CCc1ccccc1)N=O)N=O,-14%,i
O=C(O)Cn1cc(F)c(=O)[nH]c1=O,11%,-5%
Cc1ccc(C2=NN(S(C)(=O)=O)C(c3cccs3)C2)cc1 (stereo unspecified),-4%,i
CCOC(=O)N1CCC(N(C(=O)Nc2ccc(Cl)c(Cl)c2)C(C)CC)CC1 (stereo unspecified),-27%,-8%
CCCN(CCC)C(=O)c1c[nH]c2ccc(S(=O)(=O)N(C)c3ccc(OCC)cc3)cc2c1=O,2%,-13%
C=CCC(Nc1ccco1)c1ccccc1 (stereo unspecified),-4%,·
CNP1(NC)=Nc2nn(-c3ccccc3)c(N)c2C(c2ccccc2)=N1,-12%,i
CC(C)NC(=O)C1CCN(C2CCN(C(=O)c3cc4c(s3)CCCCC4)CC2)CC1,0%,-6%
COC(=O)Cn1c(=NC(=O)C2CC2)sc2c(C)cc(C)cc21,-5%,-8%
COC(=O)Nc1ccc([N+](=O)[O-])cc1OC,-11%,-14%

# Arranged by number of heavy atoms (lowest first): some entries from above
SMILES,Vaccinia Venus,VACV mCherry inh
O=Cc1cc2c(cc1[B-](F)(F)F)OCO2,-9%,i
O=C([C@@H]1CC=C[C@@H]2CCN(C3CC3)C(=O)[C@@H]21)N1CCOCC1,-8%,-13%
Cc1ccc2c(c1)c1c(c(=O)n(-c3ccccc3C)c(=O)n1CC(=O)NCC1CCCO1)n2C (stereo unspecified),-3%,11%
C[C@@H]1CN([C@H](C)CO)S(=O)(=O)c2ccc(-c3ccc(C(=O)N(C)C)cc3)cc2O[C@H]1CN(C)C(=O)Cc1ccccn1,-13%,i

# The results go on.
SMILES,Vaccinia Venus,VACV mCherry inh
O=c1c2sccc2[nH]c(=S)n1Cc1ccccc1,-6%,-13%
CC1CCN(C2=NN3C(=N)/C(=C\c4ccc(OC(=O)c5ccco5)cc4)C(=O)N=C3S2)CC1,3%,-6%
Cc1ccc2nc(SCC(=O)NC3CCCC3)[nH]c2c1,0%,i
COCCNC(=O)c1ccc(NC(=O)N2CCCCc3ccccc32)cc1,-3%,2%
NCC1CC2c3ccccc3C1c1ccccc12 (stereo unspecified),-9%,i
Nn1c(SCC(=O)Nc2nc3ccccc3s2)nncc1=O,3%,i
CCOC(=O)c1c(C)[nH]c(C(=O)Cn2c(=O)c3c(ncn3CC)n(Cc3ccccc3)c2=O)c1C,-11%,·
COc1ccc(OCC(=O)N2c3ccc(C)cc3C3CN(C)CCC32)cc1 (stereo unspecified),5%,-14%
COCCN1C(=O)/C(=C/c2ccc(OCc3ccc(C(=O)O)cc3)c(OC)c2)SC1=Nc1ccccc1,-17%,-19%
COc1cc(-c2nnc(SCC(=O)Oc3ccc(C)cc3C)o2)cc(OC)c1OC,-8%,-8%
CC1(C(=O)Nc2ccccc2)Cc2c(-c3ccc4c(c3)OCO4)ccnc2O1 (stereo unspecified),-16%,10%
O=C(/C=C/c1ccc(F)cc1)NC(=S)Nc1ccccc1,-4%,-12%
C[C@H](NC(=O)c1nc[nH]c1C(=O)N[C@@H](CCCCNC(=O)OC(C)(C)C)C(=O)OC(C)(C)C)c1ccccc1,?,?
O=C(CSc1ccccc1C(=O)NCc1ccccc1)NC1CCCCCCC1,-18%,i
COc1cc(/C=C/c2nc(C#N)c(N3CCC(C)CC3)o2)cc(OC)c1OC,-11%,-10%
CC(C)C(=O)Nc1cccc2nsnc12,-10%,-6%
Cc1sc2ncn(CC(=O)N3CCN(c4ccccc4)CC3)c(=O)c2c1S(=O)(=O)N1CCC(C)CC1,-15%,-16%
COCCn1c(=O)[nH]c(=O)c2c(C(F)(F)F)cc(-c3cccs3)nc21,-18%,?
C#CCOCCOCCOCCNc1nc(N2CCN(C(=O)C([C@@H](C)O)n3cc([C@@H](N)CCCCN)nn3)CC2)nc(N2CCN(C(=O)[C@H](CCC(=O)O)n3cc([C@@H](N)CCCCN)nn3)CC2)n1 (stereo partly specified),2%,i
O=C(O)CCC1(CCC(=O)O)CCCC(CCC(=O)O)(CCC(=O)O)C1=O,-5%,i
CCNc1nc(NCC)n2c(SCC(=O)N(CC)C3CCCCC3)nnc2n1,-25%,-30%
CSc1nc2c([nH]1)c(=S)n(C)c(=O)n2C,-1%,-15%

# Some of the entries above in another layout.
compound: CC(C)C(=O)Nc1cccc2nsnc12
- Vaccinia Venus: -10%
- VACV mCherry inh: -6%
compound: CCNc1nc(NCC)n2c(SCC(=O)N(CC)C3CCCCC3)nnc2n1
- Vaccinia Venus: -25%
- VACV mCherry inh: -30%
compound: C#CCOCCOCCOCCNc1nc(N2CCN(C(=O)C([C@@H](C)O)n3cc([C@@H](N)CCCCN)nn3)CC2)nc(N2CCN(C(=O)[C@H](CCC(=O)O)n3cc([C@@H](N)CCCCN)nn3)CC2)n1 (stereo partly specified)
- Vaccinia Venus: 2%
- VACV mCherry inh: i
compound: COc1cc(/C=C/c2nc(C#N)c(N3CCC(C)CC3)o2)cc(OC)c1OC
- Vaccinia Venus: -11%
- VACV mCherry inh: -10%
